# Assay outcomes deposited in PubChem by several laboratories.
# ALR H2O2 inh – inhibitors of human ALR sulfhydryl oxidase, primary screen, biochemical, H2O2 detection, HRP-luminol luminescence, single point; FAD-linked sulfhydryl oxidase ALR (Homo sapiens), P55789; purified ALR, DTT oxidation; inhibition, % (test concentration not listed); 290,000 tested, 3.8% active;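 active = mean and each replicate at 75% or more; inconclusive = only one of the two met; inactive = neither met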;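 also: stock transfer was 7.5 nL into about 7.5 µL; 0% = neutral wells and 100% = wells with inactivated enzyme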
# Target sequence (P55789 whole entry, looked up): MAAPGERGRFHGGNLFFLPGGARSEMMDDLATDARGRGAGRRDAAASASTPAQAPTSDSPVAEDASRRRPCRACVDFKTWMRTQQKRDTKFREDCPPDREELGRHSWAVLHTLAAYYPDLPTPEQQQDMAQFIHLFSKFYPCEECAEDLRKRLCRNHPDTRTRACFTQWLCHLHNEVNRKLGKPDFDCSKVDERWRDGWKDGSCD
# Beta2AR agonist – beta2AR agonists driving receptor internalization, primary screen, cell-based, FAP fluorogen, flow cytometry. 340,000 tested, 0.43% active. response, % (concentration not given with the values). Am2.2-beta2AR cells; reference of the scale not given here;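 active = response above a set limit, near 3 SD of response in nonfluorescent compounds, cut at about 42% in these data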;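 also: stock transfer was 100 nL into about 11 µL; a reference agonist was the positive control; negative values mostly stem from fluorescent compounds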
# Target sequence (P07550 whole entry, looked up): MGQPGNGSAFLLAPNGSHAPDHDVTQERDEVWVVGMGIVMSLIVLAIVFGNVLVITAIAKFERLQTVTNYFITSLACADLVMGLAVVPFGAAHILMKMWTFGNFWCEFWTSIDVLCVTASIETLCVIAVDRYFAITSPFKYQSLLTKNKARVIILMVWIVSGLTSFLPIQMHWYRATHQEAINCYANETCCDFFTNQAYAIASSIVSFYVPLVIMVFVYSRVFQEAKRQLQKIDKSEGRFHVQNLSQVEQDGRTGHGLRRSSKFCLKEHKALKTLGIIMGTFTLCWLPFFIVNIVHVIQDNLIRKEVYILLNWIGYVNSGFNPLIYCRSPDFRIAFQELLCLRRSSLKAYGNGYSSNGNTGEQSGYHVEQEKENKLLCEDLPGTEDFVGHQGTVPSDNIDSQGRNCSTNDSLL
# RanGTP-Impb inh – inhibitors of RanGTP-importin-beta interaction, primary screen, biochemical, FRET, CFP-Ran, YFP-importin-beta, homogeneous; inhibition, % (no concentration beside the values); 300,000 tested, 1.1% active; AID 2216, 2009; cell-free CFP-Ran/YFP-importin-beta FRET ratio;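 active = most replicates above 15%; inconclusive = exactly half above 15%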;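 also: 0% = DMSO wells and 100% = Ran loaded with GDP instead of GTP; wells of about 40 µL received 100 nL stock; the first replicate is given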
# HNF4A DNA FP – change in binding of human HNF4A to DNA, primary screen, biochemical, fluorescence polarization, FITC-DNA; Hepatocyte nuclear factor 4-alpha (Homo sapiens), P41235; 1 h; activity change, % at 10 µM; 360,000 tested, 0.3% active; AID 1224865, 2016; in the data active = activity change above about 30%, passing the limit was not always enough;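 also: controls were the assay level and a saturating level of protein; the project sought stronger binding though the title names inhibitors; some compounds called inactive have numbers as strong as hits; positive values seem to mean higher polarization but the record does not say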
# Target sequence (P41235 whole entry, looked up): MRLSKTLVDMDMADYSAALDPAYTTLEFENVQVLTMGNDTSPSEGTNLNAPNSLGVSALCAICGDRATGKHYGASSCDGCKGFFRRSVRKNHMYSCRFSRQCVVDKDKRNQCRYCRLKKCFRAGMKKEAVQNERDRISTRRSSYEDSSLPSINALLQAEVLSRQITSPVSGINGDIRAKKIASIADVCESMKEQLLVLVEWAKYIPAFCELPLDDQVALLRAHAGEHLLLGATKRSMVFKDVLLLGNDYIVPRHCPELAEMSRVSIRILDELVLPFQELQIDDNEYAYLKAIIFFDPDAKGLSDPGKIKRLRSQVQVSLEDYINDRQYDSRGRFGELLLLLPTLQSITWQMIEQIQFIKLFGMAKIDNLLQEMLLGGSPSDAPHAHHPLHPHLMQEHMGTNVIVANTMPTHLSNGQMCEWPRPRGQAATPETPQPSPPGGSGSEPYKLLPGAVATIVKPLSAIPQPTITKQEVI
# Vif A3G – inhibitors of Vif binding to APOBEC3G peptide, primary screen, biochemical, TR-FRET, GST-Vif 1-94, biotin-A3G peptide, dose response retest (AID 1117319); TR-FRET GST-Vif / biotin-A3G peptide binding; higher % means a stronger effect; test concentration not given here; strong numbers were not always called active; 260,000 tested, 0.57% active; Virion infectivity factor (Human immunodeficiency virus type 1 group M subtype B (isolate …; one-dose inhibition, %; IC50 in µM for titrated hits;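 active = above the screen mean plus three standard deviations and confirmed in dose response; inconclusive = results disagree or hit not tested in dose response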;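 also: Vif residues 1-94 fused to GST binding biotinylated APOBEC3G peptide 110-148; 0% = full assay without inhibitor and 100% = GST in place of GST-Vif; retest series ran down from 100 µM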
# Calb FLC – C. albicans growth inhibition with fluconazole, primary screen, CaCi-2 strain, Alamar Blue fluorescence. C. albicans CaCi-2 (fluconazole-resistant clinical isolate) + fluconazole, 48 h. AID 1979, 2009. growth inhibition, % (concentration not given with the values). 300,000 tested, 0.57% active;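 active = most replicates above 75%; inconclusive = exactly half above 75%; inactive = most below 75%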;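 also: all wells also contain fluconazole at 8 µg/ml as a sub-toxic cotreatment; 0% = median of DMSO wells and 100% = median of geldanamycin control wells; wells of about 8 µL received 7.5 nL stock; the first replicate is given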
# LANA-H2A inh – blockers of LANA interaction with H2A/H2B – biochemical, FP readout, HTS, primary screen | cell-free LANA-H2A/H2B peptide, fluorescence polarization | inhibition, % (concentration not given with the values) | 320,000 tested, 0.6% active | AID 2629, 2010; in the data active = inhibition mostly above about 10%, no sharp cut-off; inactive = mostly below about 6.7%;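 also: stock transfer was 7.5 nL into about 10 µL; 0% = median of vehicle wells and 100% = median of positive control wells; one replicate is shown; the record names a cut of 25% in any replicate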
# Active calls of the source: *; ? = inconclusive; · = not tested or not shown; & = joins results of further samples. The list is partial; count on the stated rates, not on these rows.
mol	LANA-H2A inh	Vif A3G	RanGTP-Impb inh	ALR H2O2 inh	HNF4A DNA FP	Beta2AR agonist	Calb FLC
CCC(C)n1c(O)c(/C=N/Nc2nc3c(c(=O)n(C)c(=O)n3C)n2C)c(=O)[nH]c1=S (configuration not stated)	-4.4	1.2%	4.7	31.6	5.9	-7.1	2.7
c1ccc2c(c1)CNCc1cnnn1-2	·	0.7%	·	·	-3.1	-7.9	·
CC(C)OC(=O)C1C(=O)NC2(C)CC1c1ccccc1O2 (configuration not stated)	2.5	-2.0%	5.7	-4.3	0.0	0.8	-0.6
O=C1N(CN2CCOCC2)c2ccccc2C1(O)c1c[nH]c2ccccc12 (configuration not stated)	4.7	?	-1.7	13.2	-2.5	-5.8	-13.4
NNC(=O)CN1C(=O)CN=C(c2ccccc2)c2cc(Br)ccc21	-3.4	94.1%	2.9	9.6	-0.5	-17.8	10.0
CC(=O)Nc1ccc(S(=O)(=O)N2Cc3cnnn3-c3ccccc3C2C#N)cc1 (configuration not stated)	·	47.3%	·	·	-1.6	2.7	·
CS(=O)(=O)N1Cc2ccccc2-n2nncc2C1	·	-1.3%	·	·	0.8	-10.8	·
Cc1ccc(N=C(/N=C(\N)N[N+](=O)[O-])Nc2ccc(C)cc2)cc1	5.6	·	0.6	-0.4	2.7	-2.1	6.1
CCCC/C(C)=C/[C@@H](NP(=O)(c1ccccc1)c1ccccc1)c1ccccc1	-4.4	-9.7%	-5.4	-3.0	1.5	2.6	4.6
ClCCOCCCl	0.3	·	·	-2.3	-1.5	5.1	·
CC/C(=C\C=C\[C@@H]1C=C[C@@H]2CCC[C@H]2[C@@H]1C(=O)c1ccc[nH]1)[C@@H]1O[C@@H]([C@@H](C)C(=O)O)CC[C@@H]1C	-1.1	·	-0.4	·	·	·	38.0
COc1ccc(Cc2nccc3cc(OC)c(OC)cc23)cc1OC	-4.7	8.5%	-0.6	-27.1	2.1	1.9	·
N#CCCn1cc(C(=O)Nc2ccccc2Cl)c(-c2ccc([N+](=O)[O-])cc2)n1	3.0	·	1.9	-8.0	1.7	-11.9	19.7
COC(=O)C1=C(c2ccc(OC)c(OC)c2)C[C@@H]2CC[C@H]1N2C(=O)NCC1CC1	2.8	·	·	0.1	-2.1	1.0	·
Cc1cc(C)c(C2=NOC(O)(C(F)(F)F)C2)c(=O)[nH]1 (configuration not stated)	1.3	19.9%	1.3	·	3.4	5.4	0.8

# Continuation.
mol	LANA-H2A inh	Vif A3G	RanGTP-Impb inh	ALR H2O2 inh	HNF4A DNA FP	Beta2AR agonist	Calb FLC
c1coc(CNCCc2c[nH]c3ccccc23)c1	-1.9	·	0.9	69.5	3.6	1.4	-16.9
O=C(Nc1ccc(Cl)c(Cl)c1)c1ccco1	-5.3	-2.5%	3.0	-5.6	0.1	-12.4	-3.3
COC(=O)C1=C(c2ccc(OC(F)(F)F)cc2)C[C@@H]2CC[C@H]1N2C(=O)NC1Cc2ccccc2C1	-1.7	·	·	3.0	5.3	-0.6	·
CCN(CC)CCCNC(=O)c1c(O)c2ccccc2n(Cc2ccccc2)c1=O	-0.8	15.0%	4.3	-0.3	0.3	17.4	6.1
CC(C)CC12CN3CCN(CC(C3)C1O)C2 (configuration not stated)	0.7*	12.7%	3.1	-2.9	-1.2	3.4	-20.6
COc1ccc(Cn2c(N)c(C(=O)NCc3ccco3)c3nc4ccccc4nc32)cc1OC	-8.1	2.4%&15.9%	·	-0.2	10.6	8.8	·
NCCc1nc2ccccc2s1	-1.1	26.5%	-1.4	-10.2	0.4	-4.8	-1.2
CCOc1cccc(N2C(=O)CC(=O)NC2=O)c1	6.5	0.2%	-1.6	-18.4	0.2	8.6	-8.1
CC(C)c1onc(C(=O)N2CCC3(CC2)OCCO3)c1[N+](=O)[O-]	3.8	3.5%	2.1	1.0	-0.3	-1.0	-2.9
CCN(CC)S(=O)(=O)c1ccc(NN=C(C#N)C#N)cc1	-2.5	17.5%	-0.5	12.7	-1.5	22.2	-8.0
N=C1c2ccccc2CN1NC(=O)c1ccccc1	-0.9	-5.7%	-0.7	1.2	2.2	7.7	0.9
O=C(Cc1ccc(N(CCCl)CCCl)cc1)NC(Cc1ccc(Cl)cc1)C(=O)O (configuration not stated)	-0.5	·	2.9	98.4*	-2.5	0.0	1.6
O=[N+]([O-])c1ccc(N2CCNCC2)cc1Sc1ccccn1	-6.4	?	-2.2	0.3	-6.5	5.2	-15.1
Cc1cccc(C)c1N1CCN(c2c(C)cccc2C)CC1	0.1	·	-7.0	17.9	2.8	-0.6	0.4
FC(F)(F)c1cccc(NC2=NCCCS2)c1	-3.1	·	-1.8	-9.5	4.3	-2.2	-10.8

# Additional records follow:
mol	LANA-H2A inh	Vif A3G	RanGTP-Impb inh	ALR H2O2 inh	HNF4A DNA FP	Beta2AR agonist	Calb FLC
CC(C)N1C(=O)NC(=O)C2(Cc3cc([N+](=O)[O-])ccc3N(C)C2c2ccccc2)C1=O (configuration not stated)	3.7	·	-1.6	·	2.2	13.1	-1.6
COc1cc(/C=C/c2nc3ccccc3c(=O)n2-c2cccc(O)c2)ccc1O	-2.2	·	-3.8	3.2	17.4	-100.9	5.4
Cc1nn(CC(C)C)c(Cl)c1C(=O)O	-0.2	1.2%	-2.0	-19.2	0.1	3.7	17.8
CC(C)c1ccc(NC(=O)CCNC(=O)N2C[C@H]3C[C@@H](C2)c2cccc(=O)n2C3)cc1	-3.3	·	-0.9	-2.5	1.2	-4.8	-2.4
Cc1cc(C)[n+](C2C3CC4CC(C3)CC2C4)o1 (configuration not stated)	0.8	·	-3.1	-4.0	-0.7	-2.9	7.6
O=C(CN1C(=O)CN=C(c2ccccc2Cl)c2cc(Cl)ccc21)NCc1ccco1	-1.3	12.9%	2.3	6.1	2.2	-2.1	-0.1
Cc1cc(/C=C2/C(=O)NC(=O)N(Cc3ccco3)C2=O)c(C)n1-c1ccc(C(=O)O)cc1	-9.5	?	11.5	97.6*	-6.7	0.1	2.7
CCCCCCC(=O)N/N=C/c1c(O)n(C2CC2)c(=S)[nH]c1=O	-6.4	16.0%	2.1	4.9	-0.9	-1.2	-22.2
CSc1ncc(/C=C2/C(=O)NC(=O)N(c3ccc(C)cc3)C2=O)cn1	3.2	·	5.0	7.4	4.0	6.7	9.9
CN(C)C1(CNC(=O)c2ccc(NS(=O)(=O)c3ccc(Cl)c(Cl)c3)cc2)CCCCC1	1.2	-19.2%	·	1.1	6.6	7.9	·
CCN(CC)C(=O)c1ccc(NC(=O)C2=C(C)OCCS2)cc1	4.7	6.2%	0.3	-11.4	-2.7	4.8	-5.5
NC(=O)c1ccc(N=Cc2c(O)n(Cc3ccco3)c(=O)[nH]c2=O)cc1	2.3	30.9%	-0.9	·	-25.9	1.6	2.2
O=C(N/N=C/c1c(O)n(Cc2ccco2)c(=O)[nH]c1=O)c1ccccc1O	0.0	-3.6%	-2.5	·	-4.6	-2.4	16.9
COc1ccccc1OCC#CCN1CCCC(C)C1 (configuration not stated)	-6.7	?	-0.3	-3.3	5.9	-19.7	0.2
CC1(C)CN(S(=O)(=O)OCC(Cl)(Cl)Cl)C(=O)N1	-12.6	·	5.9	3.4	0.6	-3.8	-13.7

# Further compounds follow.
mol	LANA-H2A inh	Vif A3G	RanGTP-Impb inh	ALR H2O2 inh	HNF4A DNA FP	Beta2AR agonist	Calb FLC
N#CC1=C(N)Oc2c(c(=O)oc3ccccc23)C1c1ccc(OC(=O)N2CCOCC2)cc1 (configuration not stated)	1.4	·	1.7	16.1	-2.1	-3.5	0.7
O=C(C(Cc1ccccc1)NS(=O)(=O)c1ccc(F)cc1)N1CCC2(CC1)OCCO2 (configuration not stated)	2.5	6.0%	-0.1	·	-0.3	1.9	-1.3
O=c1c2ccccc2ncn1-c1ccc([N+](=O)[O-])c(C(F)(F)F)c1	2.6	18.7%	5.8	·	0.4	-5.8	-4.0
Nc1ccc(C(=O)N/N=C2/CN3CCC2CC3)cc1	2.3	4.9%	-1.9	-25.7	-0.6	7.9	0.9
CCN(CC)S(=O)(=O)c1ccc(N=Cc2c(O)n(-c3ccccc3)c(=O)[nH]c2=O)cc1	0.3	4.0%	-0.1	-5.4	-1.3	-10.2	-1.2
CCc1nccc2c1[nH]c1ccccc12	-2.5	·	1.4	-14.2	-5.6	-19.1	-5.0
CCC1(CCCC(=O)c2ccc(F)cc2)C(=O)NC(=S)NC1=O	11.9	-2.6%	-4.0	-9.5	-4.3	1.6	1.7
CCCCn1c(O)c(C=NC2CCCCC2N)c(=O)[nH]c1=O (configuration not stated)	-3.6	4.0%	2.0	-22.2	-3.0	0.4	0.3
CCCCn1c(O)c(C(C)=NCCc2ccccc2)c(=O)[nH]c1=O	1.6	3.8%	-1.1	·	-1.8	0.4	5.9
COc1ccc(CN2CCCC(C(=O)c3ccccc3SC)C2)cc1O (configuration not stated)	-3.2	0.4%	2.4	56.5	-4.1	-0.8	14.7
Cc1sc2c(c1C)C(c1ccc(C(C)(C)C)cc1)=NCC(=O)N2CC(=O)Nc1nccs1	-2.9	?	5.5	-7.7	-0.2	-15.1	28.6
CCOC(=O)C1(CCCc2ccccc2)CCN(C2CCC2)CC1	-0.6	0.3%	?	-0.9	-6.5	1.3	-15.6
COc1ccc(C2SCC(=O)Nc3c2c(=O)[nH]n3C2CCCCCC2)cc1OC (configuration not stated)	-3.9	16.3%	-3.1	-5.5	3.0	-7.1	-22.5
CC(C)COc1ccc(C2(C#N)CC[N+](C)(C)CC2)cc1	1.4	?	0.0	-1.5	0.7	0.2	-2.4
CCN(CC)c1ccc(N=Cc2c(O)n(-c3ccc(OC)cc3)c(=O)[nH]c2=O)cc1	-2.3	19.6%	-11.7	·	6.4	6.0	4.7

# Remaining list, next part:
mol	LANA-H2A inh	Vif A3G	RanGTP-Impb inh	ALR H2O2 inh	HNF4A DNA FP	Beta2AR agonist	Calb FLC
O=c1[nH]c(=O)n(Cc2ccco2)c(O)c1C=NCc1ccco1	-3.1	?	-0.3	-1.5	-0.5	·	19.7
O=c1c2ccccc2nc(C[n+]2ccccc2)n1-c1cccc(C(F)(F)F)c1	0.1	·	?	-12.9	-5.3	-1.8	6.2
COc1ccc(C(Nc2ccccc2)P(=O)(Oc2ccccc2)Oc2ccccc2)cc1 (configuration not stated)	-7.4	5.4%	2.7	-10.3	-0.4	3.2	2.9
COc1cccc(NP(=O)(Oc2ccc(Cl)cc2)Oc2ccc(Cl)cc2)c1	2.8	·	4.9	-1.4	3.9	-3.5	20.2
Cn1c(O)c(/C=N/N2CCCCC2)c(=O)[nH]c1=O	1.8	-0.1%	5.2	67.6	1.4	8.5	-15.3
COC(=O)C1=CCCN(C)C1	-0.7	-0.8%	-0.3	-32.3	-1.0	-5.0	-6.9
O=C1NC(=S)N(c2ccccc2F)C(=O)/C1=C\c1cccs1	·	12.3%	-2.5	·	-2.0	22.1	-6.5
O=C(c1cc(C(=O)NCc2ccccc2)c(=O)n(Cc2ccccc2)c1)c1cc(Cl)ccc1O	-0.7	·	?	-1.1	10.5	10.8	-15.9
COC(=O)C1=C(c2ccccc2OCc2ccccc2)C[C@@H]2CC[C@H]1N2C(=O)NCc1ccc([N+](=O)[O-])cc1	2.8	·	·	-2.8	3.3	2.3	·
C/C(=C\c1ccc(N(C)C)cc1)[N+](=O)[O-]	-6.5	7.8%	0.6	·	1.0	15.3	14.2
